Screening data as filed in PubChem.
Tg IFNy HTS: inhibitors of Toxoplasma gondii growth with IFN-gamma; Toxoplasma gondii growth in IFN-gamma-treated host cells; active compounds read low; reference of the scale not given here; activity change, negative = inhibition, %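 (about 20 µM by stock and volumes)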; 69,000 tested, 3.8% active; AID 1259416;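 active means below -70%; inconclusive means fit judged invalid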;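 further: host cells are HeLa cells infected with Toxoplasma gondii; parasite growth read as luciferase light; one replicate is shown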
The depositor's hits bear a star; ? = inconclusive. A portion of the library, so the mix of outcomes need not match the whole.

| mol | Tg IFNy HTS |
| --- | --- |
| COc1ccc(S(=O)(=O)N(C)C[C@H]2OCCCC[C@H](C)Oc3ccc(NC(=O)Cc4ccccc4)cc3C(=O)N([C@@H](C)CO)C[C@H]2C)cc1 | -64 |
| NC(=O)COc1ccccc1-c1[nH]cnc1-c1ccccc1 | 9 |
| CS(=O)(=O)N(CCc1ccccc1)CC(=O)O | -6 |
| COc1ccc(-c2nc3c(s2)CN(S(=O)(=O)c2ccc(Cl)cc2)CC3)cc1 | 16 |
| COc1ccc(S(=O)(=O)N(C)Cc2nnc(-c3ccccc3)o2)cc1C(C)(C)C | 2 |
| COCCO[C@@H]1C[C@@H]2CN(C(=O)c3cnccn3)CCN2C1 | -12 |
| CCn1ncnc1CN1CCCC(c2n[nH]c(=O)n2-c2ccccc2)C1 (stereo not drawn) | -19 |
| CC(C)N(C)Cc1cnc2n1CCN(C(=O)C1CCOCC1)C2 | 2 |
| Cc1cccc(CN2CCCC3(CCN(CC(=O)N(C)C)C3=O)C2)n1 (stereo not drawn) | 4 |
| COc1ccc(NC(=O)Nc2cccc3c2O[C@H](CN(C)Cc2ccc(C(=O)O)cc2)[C@@H](C)CN([C@H](C)CO)C3=O)cc1 | 57 |
| O=C1CC2(CCN(c3cnccn3)C2)CN1c1ccc(F)c(F)c1 (stereo not drawn) | -36 |
| CCn1c(CSc2nc(-c3ccc(Cl)cc3)cn2-c2ccc(C)cc2)n[nH]c1=S | -27 |
| CN(C)[C@@H]1CCN(C(=O)c2ccoc2)[C@H]1Cc1ccccc1 | -61 |
| CCn1c(=O)c2ccccc2n(CC(=O)c2ccc(OC)c(OC)c2)c1=O | 86 |
| O=C(c1ccn[nH]1)N1CCC2(CC(=O)N(c3ccccc3)C2)C1 (stereo not drawn) | -11 |

Two entries from above, reformatted.
smiles: COCCO[C@@H]1C[C@@H]2CN(C(=O)c3cnccn3)CCN2C1
  Tg IFNy HTS = -12

smiles: CCn1ncnc1CN1CCCC(c2n[nH]c(=O)n2-c2ccccc2)C1 (stereo not drawn)
  Tg IFNy HTS = -19

An excerpt from above in order of formula weight, largest number first:
| mol | Tg IFNy HTS |
| --- | --- |
| Cc1cccc(CN2CCCC3(CCN(CC(=O)N(C)C)C3=O)C2)n1 (stereo not drawn) | 4 |
| COCCO[C@@H]1C[C@@H]2CN(C(=O)c3cnccn3)CCN2C1 | -12 |
| CN(C)[C@@H]1CCN(C(=O)c2ccoc2)[C@H]1Cc1ccccc1 | -61 |

The list goes on:
| mol | Tg IFNy HTS |
| --- | --- |
| Cc1ccc2[nH]c(C(=O)NC(C)Cc3c(C)nn(C)c3C)c(-c3ccccc3)c2c1 (stereo not drawn) | -27 |
| Cc1ccc(CN2Cc3nccn3CC(COc3cccnc3)C2)o1 (stereo not drawn) | 7 |
| CC(=O)N[C@H]1C[C@@H](c2cnn(-c3cccc(C)c3)c2)O[C@@H](C(C)C)C1 | -6 |
| Cc1ccc(C)c(S(=O)(=O)N2CCC(c3nc(C(=O)N4CCOCC4)c(C)o3)CC2)c1 | 77 |
| CNC[C@H]1OCCCC[C@@H](C)Oc2ccc(N)cc2C(=O)N([C@H](C)CO)C[C@H]1C | -10 |
| Cc1cnc(-c2nnc(C3CCN(C(=O)C4OCCc5ccccc54)C3)o2)cn1 (stereo not drawn) | -25 |
| CCO[C@@H]1CO[C@@]2(CCCN(C(=O)CC3=CCCCC3)C2)C1 | 46 |
| CCOC(=O)c1cccc(NC(=O)c2ccccc2OCC)c1 | -34 |
| C[C@H](O)C#Cc1ccc([C@@H]2[C@H](CO)N3CCCCN(CC4CC4)C[C@@H]23)cc1 | -7 |
| Cc1cc(C)nc(CN(C)C(=O)c2ccccc2C2CCNC2)c1 (stereo not drawn) | -2 |
| O=C(CN1CCc2ccccc21)Nc1nnc(-c2cccs2)s1 | 201 |
| CCn1c(C2CCN(C(=O)Cc3sc(C)nc3C)CC2)nn(C)c1=O | -47 |
| CCN(C(=O)c1nc2c(s1)CCCN2c1ncccn1)C(C)C | -22 |
| O=C(Cn1ncc2c(N3CCCCC3)ncnc21)Nc1cccc(Cl)c1 | -47 |
| CC(=O)NC1C(OCc2ccccc2)OC(COC(C)=O)C(OC(C)=O)C1OC(C)=O (stereo not drawn) | -6 |

Continued; it opens with the 3 that closed the last part.
| mol | Tg IFNy HTS |
| --- | --- |
| CCN(C(=O)c1nc2c(s1)CCCN2c1ncccn1)C(C)C | -22 |
| O=C(Cn1ncc2c(N3CCCCC3)ncnc21)Nc1cccc(Cl)c1 | -47 |
| CC(=O)NC1C(OCc2ccccc2)OC(COC(C)=O)C(OC(C)=O)C1OC(C)=O (stereo not drawn) | -6 |
| Cc1ccc(-c2cc(O)c3c(c2)CN(CC2CCCN2C)CCO3)s1 (stereo not drawn) | -6 |
| CNC(=O)[C@@H]1C[C@@H](N)CN1C(=O)c1ccc(-n2nc(C)cc2C)cc1 | -41 |
| CO[C@H]1CN(C)C(=O)c2cc(NC(=O)C3CCCCC3)ccc2OC[C@@H](C)N(Cc2cccnc2)C[C@@H]1C | -47 |
| CC(C)N1CCO[C@H]2CCN(C(=O)c3cn(C)cn3)C[C@H]21 | -4 |
| Cc1cccc(Oc2coc3cc(OC(=O)c4cncc(Br)c4)ccc3c2=O)c1 | 45 |
| CCn1c(=O)c(C(=O)Nc2cc(C)cc(C)c2)c(O)c2ccccc21 | 10 |
| Cc1cc(NC(=O)Cn2cc(C(=O)NCCc3ccccc3C)ccc2=O)no1 | 34 |
| CCOc1ccc2nc(N3CCCC(N(C)CCCN4CCOCC4)CC3)nc(C)c2c1 (stereo not drawn) | -10 |
| CN(C)CCOC1CC2(CCN(c3cnccn3)CC2)c2ccccc21 (stereo not drawn) | -3 |
| CN(C)CCN1C(=O)CC2C1CCN2C(=O)Cc1cccs1 (stereo not drawn) | 9 |
| c1ccc(CN2CCCN(c3nccc(CN4CCc5ccccc5C4)n3)CC2)cc1 | -16 |
| Cc1cccc(C)c1NC(=O)c1c(O)c2ccccc2n(-c2ccccc2)c1=O | -105* |
| Cc1ccc(S(=O)(=O)NC(C)(C)CSc2ncccn2)cc1 | ? |
| FC(F)(F)Oc1ccc(C2=NCCc3sccc32)cc1 | 54 |
| N#Cc1c(-c2ccco2)cc(-c2ccco2)[nH]c1=O | 65 |

(next part)
compound	Tg IFNy HTS
Cc1cnccc1N1CCCN(Cc2ccc(C#CC(C)(C)O)cc2)CC1	-13
CCCNC(=O)Nc1ccc2c(c1)C(=O)N(C)[C@H]1CC[C@H](CC(=O)Nc3ccc4c(c3)CCCC4)O[C@@H]1CO2	-32
C[C@H](CO)N1C[C@H](C)[C@@H](CN(C)C(=O)NC2CCCC2)OCc2cnnn2CCCC1=O	-13
CCCc1ccc(-c2ccc(C(=O)N3CCCC(O)(CO)CC3)cc2)cc1 (stereo not drawn)	-4
Cc1nc2nc(C(=O)N3CCc4[nH]c5c(C)cccc5c4C3)cc(C(C)(C)C)n2n1	-41
COc1ncccc1CN1CCN(c2cncc(C(N)=O)n2)CC1	-6
CN(C)S(=O)(=O)N1CCC2(CCOCC2COCC2CC2)CC1 (stereo not drawn)	1
COc1ccc(-c2nc(NCCCN3CCN(C)CC3)c3ccccc3n2)cc1	-51
CC1CCCN(C(=O)CSc2nnc3n(CC(=O)N4CCCC4)c4ccccc4n23)C1 (stereo not drawn)	19
C[C@@H]1CN([C@H](C)CO)C(=O)c2ccccc2-c2ccccc2CO[C@@H]1CN(C)S(=O)(=O)Cc1ccccc1	-50
COc1ccc(S(=O)(=O)N(CCC#N)C2CCc3ccccc32)cc1OC (stereo not drawn)	26
CSc1nc(N)nc(-c2ccncc2)n1	19
NC(=O)C1Cc2ccccc2CN1C(=O)c1cc(-c2ccccn2)nc2ccccc12 (stereo not drawn)	-3
Cc1nc2c(C(=O)N3CCc4[nH]nc(-c5cccc(F)c5)c4C3)cccc2[nH]1	-20
CC(=O)N[C@@H](CC(C)C)C(=O)O	-32
O=C(C[C@@H]1CC[C@H]2[C@@H](COC[C@H](O)CN2C(=O)c2cnccn2)O1)N1CCN(c2ccccc2)CC1	2
O=C1NCC2(CCCN(C(=O)CCc3c[nH]c4ccccc34)CC2)O1 (stereo not drawn)	5
C[C@@H]1CN([C@H](C)CO)C(=O)c2cc(NC(=O)C3CCCCC3)ccc2O[C@@H](C)CCCCO[C@@H]1CN(C)C(=O)CCC(F)(F)F	9
CS(=O)(=O)Cc1cccc(C(=O)O)c1	-11
CCCNC(=O)N1C[C@@H](O)COC[C@H]2O[C@@H](CC(=O)OC)CC[C@@H]21	-3
O=c1[nH]nc(C2CCN(C/C=C/c3ccco3)CC2)n1Cc1ccccc1	-1
Cc1c(C(=O)N(C)Cc2cc(-c3ccccc3)no2)oc2c(F)cccc12	14
Cc1ccc2nc(N3CCC(C(=O)NCCc4cccc(F)c4)CC3)nc(C)c2c1	15
O=C(N1CCCC(O)(CO)CC1)C1(c2ccccc2)CCCCC1 (stereo not drawn)	-7
COc1cccc(CC(=O)N2CCc3nc(-c4ccc(F)cc4)nc(C)c3CC2)c1	-6
COc1cccc(-c2nn(C)c3c2[C@H]2CN(Cc4nccs4)C[C@@H]2C3)c1	-5
C[C@@H](C(=O)N1C[C@H]2C[C@H](O)[C@H](O)C[C@H]2C1)c1ccccc1	8
CC(C)C(=O)N1CCc2c([nH]c3ccccc23)C12C(=O)N(C)c1ccccc12 (stereo not drawn)	82
Cc1ccc(NC(=O)Cn2c(=O)cc(C(=O)N3CCc4ccccc4C3)c3ccccc32)cc1	-28
O=C1NCCOCn2nncc2CC[C@H]1Cc1cccc(Cl)c1	-6
COCC(=O)N1CC(=O)N2[C@H](C1)[C@@H](c1ccc(-c3ccccc3F)cc1)[C@@H]2CO	12
C[C@@H]1CCCCO[C@H](CN(C)C(=O)Nc2ccccc2)[C@H](C)CN([C@H](C)CO)C(=O)c2cc(NC(=O)Nc3ccccc3)ccc2O1	72
COCCNC(=O)c1cc2cc(S(=O)(=O)N(C)C)ccc2n1Cc1ccncc1	178
CNC(=O)N1C[C@@H]2N(c3ncccn3)CCC[C@@]2(C(=O)NCC2CC2)C1	10
N#C[C@H]1[C@H](c2ccccc2-c2ccc(F)cc2)[C@@H](CO)N1C(=O)Cc1cccnc1	-11
Cc1nccnc1-c1ccnn1S(=O)(=O)c1ccccc1	60
Cc1cc(C(=O)NC(CC(C)C)C(=O)O)cc(C)c1[N+](=O)[O-] (stereo not drawn)	9
Cn1nc(C2CCN(C(=O)CS(C)(=O)=O)CC2)n(Cc2ccccc2)c1=O	-4
COc1ccccc1C(NC(=O)c1ccn(C(F)F)n1)c1ccccc1 (stereo not drawn)	3
CCOc1ccc(C(=O)N2CC3(CCNCC3)CC2C(=O)O)cc1OCC (stereo not drawn)	12
CCN1C(=O)C2(CCN(C(=O)N(C)C)CC2)CC12CCN(S(=O)(=O)C1CC1)CC2	-5
COc1ccc(F)c(-c2nc(OC)cc(OC)n2)c1	-16
Cc1ccccc1N(Cc1nc(-c2cccc(Cl)c2)oc1C)S(=O)(=O)c1cccs1	-35
CNS(=O)(=O)c1ccc(CN2CC[C@@H](c3ccc(F)cc3)[C@H](O)C2)cc1	1
CCc1ccc(S(=O)(=O)N2CCC[C@@H]2C(=O)NCCc2csc(-c3ccccc3)n2)cc1	-55
Cc1ccc(N2CCc3sc(C(=O)NCC(C)C)cc32)nn1	-13
CC(=O)N1C[C@H](C(N)=O)[C@@H](c2ccc(CN(C)Cc3c(C)nc4c(C)cccn34)cc2)C1	-13
COc1ccc(C)cc1Nc1nc(-c2nnc(-c3ccc(Cl)cc3)o2)nc2ccccc12	89
Cc1nc2c(c(NC(C)C)n1)CCN(C(=O)c1ccn[nH]1)CC2	-43
CNC(=O)c1ccc(-c2nc(CN3CCN(S(=O)(=O)Cc4ccccc4)CC3)c(C)o2)cc1	79

Three records picked at random from the list so far, as already listed:
compound	Tg IFNy HTS
O=C1NCCOCn2nncc2CC[C@H]1Cc1cccc(Cl)c1	-6
COc1cccc(-c2nn(C)c3c2[C@H]2CN(Cc4nccs4)C[C@@H]2C3)c1	-5
CNS(=O)(=O)c1ccc(CN2CC[C@@H](c3ccc(F)cc3)[C@H](O)C2)cc1	1

Continuation:
compound	Tg IFNy HTS
CC(C)(C)NC(=O)Cn1ncc2c(N3CCN(c4ccccn4)CC3)ncnc21	19
O=C([C@H]1[C@H](CO)[C@H]2Cn3c(cccc3=O)[C@H]2N1Cc1cocn1)N1CCC(Cc2ccccc2)CC1	1
Cc1ccsc1C(=O)N1CCC2(CC1)Nc1cccnc1NC2=NC1CCCC1	35
C=Cn1cc(CN2CCC(c3nn(C)c(=O)n3-c3ccccc3)CC2)cn1	8
Cn1ccnc1C(=O)NCc1cc(=O)n2c(n1)CNCCC2	26
CCN1CC[C@@]2(CN(c3ncccn3)C[C@H]2c2ccccc2)C1=O	-68
FC(F)(F)c1ccc(-n2ccnc2)nc1	38
CC(C)n1c(C(=O)N2CCCC2)nc2c1CCN(C)C2	71
O=C(c1ccoc1)N1C[C@H](Oc2ccccn2)[C@@H]2OCCC[C@@H]21	-56
CNC(=O)N1CC(=O)NCC12CCN(C(=O)Nc1ccccc1)C2 (stereo not drawn)	-11
C[C@@H]1CN([C@@H](C)CO)S(=O)(=O)c2ccc(-c3ccncc3)cc2O[C@@H]1CN(C)S(C)(=O)=O	42
CCCc1ccc(C(=O)N2CCC3(CC2)COCCN(Cc2ccncc2)C3)cc1	-14
Cc1noc(CN2CCOc3c(O)cc(-c4ccc(C)s4)cc3C2)n1	0
Cn1ccnc1Sc1cnc(=S)[nH]c1-c1ccc(Cl)cc1	17
COc1ccc(NC(=O)Cn2c(=O)ccc3cc(S(=O)(=O)N4CCCC4)ccc32)cc1OC	27
Cc1cccc(-c2noc(C(C)NC(=O)c3cn4cccc(C)c4n3)n2)c1 (stereo not drawn)	7
CCn1nc(C)c(C(C)NC(=O)c2cc(CC(C)C)nn2C)c1C (stereo not drawn)	10
Cc1nc(-c2ccc(F)cc2)sc1CCNC(=O)c1ccc(Br)cc1	-81*
CNc1ncccc1CN(Cc1ccc(OC)cc1OC)CC1CCCO1 (stereo not drawn)	-13
CS(=O)(=O)N1C[C@H]2CN(Cc3ccncc3)C(=O)[C@@H]2C1	-3
CCn1ccc(C(=O)N2CCC(O)(CN(C)C)C2)cc1=O (stereo not drawn)	10
Cc1cccc(C)c1Oc1ncccc1CNC(=O)c1nc[nH]c1C	-5
